# From PubChem
# ID4 SMM – binders of human ID4 protein. calls only. small molecule microarray, Flag-ID4 binding, fluorescence F/B. actives 1.2% (n = 31,000). P47928;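 active = spot signal over background at p below 0.07 in all four prints; compounds were printed on slides so no solution concentration is given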;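 note: a binder raises fluorescence above local background on the spot; about 2 pmol printed per array spot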
# Target sequence (P47928 whole entry, looked up): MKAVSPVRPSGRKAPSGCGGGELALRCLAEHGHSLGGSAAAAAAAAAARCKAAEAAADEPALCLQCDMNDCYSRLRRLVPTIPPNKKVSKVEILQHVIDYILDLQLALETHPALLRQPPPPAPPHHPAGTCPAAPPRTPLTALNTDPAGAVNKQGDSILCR
# Calls only; i = inactive; + = active, no number.
structure | ID4 SMM
CC(=O)Nc1ccc(S(=O)(=O)Nc2ccc(Oc3cccnc3)cc2)cc1 | i
O=C(O)COc1ccc(NC(=O)c2ccccc2-c2ccccc2C(=O)O)cc1 | i
COc1cc2ccc(=O)oc2cc1O | i
CO[C@@H]1CN(C)C(=O)c2cc(NC(=O)NC3CCCCC3)ccc2OC[C@@H](C)N(C)C[C@H]1C | i
C[C@H](CO)N1C[C@H](C)[C@H](CN(C)C)Oc2cc(C#Cc3ccc(F)cc3)ccc2S1(=O)=O | i
NC(=O)c1c(NC(=O)CCSc2nc(-c3ccco3)cc(C(F)(F)F)n2)sc2c1CCCC2 | i
C[C@@H]1CN([C@H](C)CO)S(=O)(=O)c2ccc(-c3ccc(F)cc3)cc2O[C@@H]1CN(C)C | i
COc1ccc(-c2cnc3c(c2)C(=O)N([C@H](C)CO)C[C@H](C)[C@H](CN(C)Cc2ccccn2)O3)cc1 | i
C[C@@H]1CN([C@@H](C)CO)S(=O)(=O)c2ccc(C#CCN(C)C)cc2O[C@H]1CN(C)C | i
O=C(CSc1n[nH]c(-c2ccc(Cl)cc2Cl)n1)Nc1cccc(Cl)c1Cl | i
COc1ccc([Si](C)(C)[C@H]2[C@H](CCO)O[C@@]3(C(=O)N(Cc4ccccc4)c4ccc(N5CCOC5=O)cc43)[C@@H]2C)cc1 | i
C[C@H]1CN([C@@H](C)CO)C(=O)c2cc(-c3cccc(C#N)c3)cnc2O[C@@H]1CN(C)C(=O)c1ccccn1 | i
Cn1c(=O)c2c(nc(NCC(O)CO)n2Cc2ccc(Cl)cc2)n(C)c1=O (stereo not drawn) | i
CC(=O)Nc1ccc(C(=O)CSc2nnc(-c3cccc(Br)c3)o2)cc1 | i
O=C(C[C@@H]1C=C[C@@H](NS(=O)(=O)c2ccccc2)[C@H](CO)O1)NCc1ccc(Cl)c(Cl)c1 | i
CC(C)Oc1cccc(-c2cc(C(=O)NCc3ccco3)c3ccccc3n2)c1 | i
CCC(=O)N(C)C[C@@H]1Oc2cc(-c3cccc(C#N)c3)ccc2S(=O)(=O)N([C@H](C)CO)C[C@@H]1C | i
Cc1ccc([N+](=O)[O-])cc1N(CC(=O)Nc1cccc(F)c1)S(C)(=O)=O | i
C[C@H](CO)N1C[C@H](C)[C@@H](CN(C)Cc2cccc(F)c2)Oc2ncc(-c3ccccc3F)cc2C1=O | i
COc1cccc(CNC(=O)C[C@@H]2CC[C@H](NC(=O)C3CCC3)[C@@H](CO)O2)c1 | i
O=C(C[C@H]1C[C@H]2c3cc(NC(=O)c4ccc5c(c4)OCO5)ccc3O[C@H]2[C@H](CO)O1)NCc1ccc(Oc2ccccc2)cc1 | i
CC(C)(C)c1ccc(OCC(=O)Nc2ccc(C(=O)Nc3ccccc3C(=O)O)cc2)cc1 | i
Cc1noc(C)c1NC(=O)N[C@H]1C=C[C@@H](CC(=O)NCc2ccc(Cl)c(Cl)c2)O[C@H]1CO | i
Cc1ccccc1Nc1nnc(C)c(=O)n1N | i
Cc1ccc(-c2cnc3c(c2)C(=O)N([C@H](C)CO)C[C@H](C)[C@@H](CN(C)C(=O)c2ccccc2)O3)cc1 | i
O=C(N[C@H]1C=C[C@@H](CC(=O)N2CCc3ccccc3C2)O[C@H]1CO)C1CC1 | i
C[C@H]1CN([C@@H](C)CO)C(=O)Cc2cc(N(C)C)ccc2O[C@@H]1CN(C)C(=O)NC1CCCCC1 | i
O=C(CCCOc1ccc(Cl)cc1Cl)Nc1c[nH]c(=O)[nH]c1=O | i
COc1ccccc1CNC(=O)C[C@H]1C[C@@H]2c3cc(NC(=O)CC4CC4)ccc3O[C@@H]2[C@@H](CO)O1 | i
COc1ccc2c(c1)N(C(=O)CSc1nnc(C)n1-c1ccc(F)cc1)C(C)(C)C=C2C | i

# Entries above that contain a cyano group (2):
structure | ID4 SMM
C[C@H]1CN([C@@H](C)CO)C(=O)c2cc(-c3cccc(C#N)c3)cnc2O[C@@H]1CN(C)C(=O)c1ccccn1 | i
CCC(=O)N(C)C[C@@H]1Oc2cc(-c3cccc(C#N)c3)ccc2S(=O)(=O)N([C@H](C)CO)C[C@@H]1C | i

# Carrying on.
structure | ID4 SMM
COc1ccccc1-c1cnc2c(c1)C(=O)N([C@H](C)CO)C[C@H](C)[C@H](CN(C)C(=O)c1ccncc1)O2 | i
COC(=O)c1c(NC(=O)c2ccc(C)c(S(=O)(=O)Nc3ccccc3C)c2)sc2c1CCCC2 | i
CCn1c(SCC(=O)Nc2cc(Cl)cc(Cl)c2)nnc1-c1ccc(C)cc1 | i
CCCC#Cc1ccc2c(c1)O[C@@H](CN(C)CC1CC1)[C@@H](C)CN([C@@H](C)CO)S2(=O)=O | i
O=C1NCCN1c1ncc([N+](=O)[O-])s1 | i
COc1ccccc1NC(=O)N[C@H]1CC[C@H](CC(=O)N2CCC(Cc3ccccc3)CC2)O[C@H]1CO | i
O=C(NCc1ccccn1)c1ccccc1C(=O)c1ccccc1 | i
Cc1nn(CC(=O)Nc2cccc(C(F)(F)F)c2)c(C)c1[N+](=O)[O-] | i
COc1ccc(-c2coc3cc(O)ccc3c2=O)cc1 | i
CC(C)(C)c1ccc(-c2nnc(SCC(=O)Nc3ccccc3[N+](=O)[O-])o2)cc1 | i
CC(C)NC(=O)N[C@@H]1C=C[C@H](CC(=O)NCc2ccc(Oc3ccccc3)cc2)O[C@H]1CO | i
CC(Sc1nc(-c2ccccc2)cc(-c2ccccc2)n1)C(=O)Nc1ccccc1 (stereo not drawn) | i
CC1(C)C(=O)C=CC2(C)C1CC(O)C1(C)C3=CCC(c4ccoc4)C3(C)CCC21 (stereo not drawn) | i
Cc1ccc(NC(=O)Cn2cnc3sc(C(=O)OC(C)C)c(C)c3c2=O)cc1 | i
CS(=O)(=O)N(CC(=O)Nc1ccc(Br)c(Cl)c1)c1ccc(F)c(Cl)c1 | i

# Three entries already listed, ordered by heavy-atom count, lowest first:
structure | ID4 SMM
CS(=O)(=O)N(CC(=O)Nc1ccc(Br)c(Cl)c1)c1ccc(F)c(Cl)c1 | i
CC(C)(C)c1ccc(-c2nnc(SCC(=O)Nc3ccccc3[N+](=O)[O-])o2)cc1 | i
CC(C)NC(=O)N[C@@H]1C=C[C@H](CC(=O)NCc2ccc(Oc3ccccc3)cc2)O[C@H]1CO | i

# (more compounds)
structure | ID4 SMM
O=C(C[C@H]1C=C[C@@H](NC(=O)CN2CCOCC2)[C@@H](CO)O1)NCc1cccc(F)c1 | i
CCc1cccc(OCC(=O)Nc2cccc(-c3nnc(-c4ccccc4)o3)c2)c1 | i
CCn1c(SCC(=O)c2ccccc2)nnc1-c1cccnc1 | i
COc1ccc(S(=O)(=O)N(C)CC(=O)Nc2ccc(I)cc2)cc1OC | i
C[C@H](CO)N1C[C@H](C)[C@@H](CN(C)Cc2cccc(F)c2)Oc2ncc(C#CCN(C)C)cc2C1=O | i
CNC(=S)N(Cc1ccco1)C1CC(=O)N(c2ccccc2)C1=O (stereo not drawn) | i
O=C(Nc1ccccc1[N+](=O)[O-])c1cc(S(=O)(=O)Nc2ccccc2)ccc1Cl | i
C[C@@H]1CN([C@@H](C)CO)C(=O)CCCn2nncc2CO[C@H]1CN(C)CC1CCCCC1 | +
O=C(Cn1cnc2ccccc2c1=O)Nc1ccc2c(c1)Cc1ccccc1-2 | i
CN(C)c1ccc2c(c1)[C@H]1C[C@H](CC(=O)NC3CCCC3)O[C@H](CO)[C@H]1O2 | i
C[C@H](CO)N1C[C@H](C)[C@H](CN(C)C)Oc2cc(-c3ccccc3F)ccc2S1(=O)=O | i
COc1ccc(-n2nnnc2SCC(=O)c2ccc(O)c(O)c2)cc1 | i
COC(=O)c1ccc(NC(=O)CSc2nnc(C)s2)cc1 | i
CS(=O)(=O)N(CC(=O)Nc1cccc2ccccc12)c1ccc(I)cc1 | i
CN1CCN(C(=O)C[C@H]2C[C@@H]3c4cc(NC(=O)C5CCOCC5)ccc4O[C@@H]3[C@@H](CO)O2)CC1 | i

# Quoted at random: 2 entries already listed, in no set order.
structure | ID4 SMM
C[C@@H]1CN([C@@H](C)CO)C(=O)CCCn2nncc2CO[C@H]1CN(C)CC1CCCCC1 | +
CNC(=S)N(Cc1ccco1)C1CC(=O)N(c2ccccc2)C1=O (stereo not drawn) | i

# Further records
structure | ID4 SMM
COc1ccccc1-c1nnc(SCC(=O)c2ccc([N+](=O)[O-])cc2)o1 | i
CN(C)c1ccc2c(c1)[C@@H]1C[C@@H](CC(=O)NCc3ccc(Oc4ccccc4)cc3)O[C@@H](CO)[C@@H]1O2 | i
CCn1c(SCC(=O)Nc2ccc(Cl)c(Cl)c2)nnc1-c1cccnc1 | i
CN1CCN(C(=O)CN(c2cccc([N+](=O)[O-])c2)S(C)(=O)=O)CC1 | i
CC(C)NC(=O)N(C)C[C@@H]1Oc2c(cccc2N(C)C)C(=O)N([C@@H](C)CO)C[C@@H]1C | i
COC(=O)C[C@@H]1CC[C@@H](NS(=O)(=O)c2ccc(OC)cc2)[C@@H](CO)O1 | i
O=C(CC1(O)C(=O)Nc2ccccc21)c1cccc(-n2cccc2)c1 (stereo not drawn) | i
O=c1cc(-c2ccccc2)nc2nc(NCc3cccc([N+](=O)[O-])c3)[nH]n12 | i
N#Cc1c(NC(=O)CSc2nc(-c3ccccc3)cc(C(F)(F)F)n2)sc2c1CCC2 | i
Cc1nc(C)c(C(=O)C2C(=O)C(=O)N(CCN(C)C)C2c2ccccc2F)s1 (stereo not drawn) | i
C[C@H](CO)N1C[C@H](C)[C@H](CN(C)Cc2ccc3c(c2)OCO3)Oc2ccc(N(C)C)cc2CC1=O | i
C[C@@H]1CN([C@@H](C)CO)S(=O)(=O)c2ccc(C#CC(C)(C)O)cc2O[C@@H]1CN(C)Cc1ccc(F)cc1 | i
Cc1ccnc(SCC(=O)Nc2cccc(Cl)c2)n1 | i
C[C@H](CO)N1C[C@H](C)[C@H](CN(C)C(=O)CN2CCOCC2)Oc2cc(/C=C/c3ccccc3)ccc2S1(=O)=O | i
CC(C)CC#Cc1ccc2c(c1)O[C@@H](CN(C)Cc1ccc3c(c1)OCO3)[C@@H](C)CN([C@@H](C)CO)S2(=O)=O | i
Cc1ccc(OCC(=O)Nc2ccc(Cl)cc2C(=O)O)cc1C | i
CNC(=O)CN(c1ccc(C)cc1)S(=O)(=O)c1ccc(Cl)cc1 | i
COc1ccc(C(=O)CC2(O)C(=O)N(Cc3ccccc3Cl)c3ccc(Cl)cc32)cc1OC (stereo not drawn) | i
N#CC1=C(SCC(=O)Nc2ccccc2C(=O)c2ccccc2)NC(=O)CC1c1ccccc1F (stereo not drawn) | i
O=C(CNS(=O)(=O)c1ccc(Br)cc1)Nc1cccc(F)c1 | i
C[C@H](CO)N1C[C@H](C)[C@@H](CN(C)Cc2ccccn2)Oc2ncc(C3=CCCCC3)cc2C1=O | i
C[C@@H]1CN([C@H](C)CO)C(=O)c2cc(C3=CCCC3)cnc2O[C@@H]1CN(C)C(=O)C1CCCCC1 | i
CCOC(=O)c1ccccc1NC(=O)CN1C(=O)c2cccc3cccc1c23 | i
C[C@H](NC(=O)C[C@H]1CC[C@H](NC(=O)C2CC2)[C@H](CO)O1)c1ccccc1 | i
NS(=O)(=O)c1ccc(NC(=S)NCc2cccnc2)cc1 | i
CCCN(C)C[C@@H]1Oc2cc(C#CCC3CCCC3)ccc2S(=O)(=O)N([C@@H](C)CO)C[C@H]1C | i
COc1ccc(S(=O)(=O)N(C)CC(=O)NC2CCCC2)cc1 | i
C[C@H](CO)N1C[C@H](C)[C@@H](CN(C)Cc2ccccc2)Oc2ncc(C3=CCCCC3)cc2C1=O | i
CN(C)C(=O)C[C@@H]1CC[C@H](NC(=O)C2CC2)[C@H](CO)O1 | i
O=C(NCc1ccco1)C1OCCc2ccccc21 (stereo not drawn) | i
CN(C(=O)CSc1ccc(C(F)(F)F)cn1)c1c2c(nn1C)CCCC2 | i
Cc1ccc(Oc2ccc(NC(=O)CN3C(=O)C4C5C=CC(C6CC56)C4C3=O)cc2)cc1 (stereo not drawn) | i
CCCN(C)C[C@@H]1Oc2cc(C#CC3CC3)ccc2S(=O)(=O)N([C@@H](C)CO)C[C@@H]1C | i
O=C(C[C@H]1CC[C@H](NC(=O)CN2CCOCC2)[C@@H](CO)O1)NCCc1ccncc1 | i
C[C@@H]1CN([C@@H](C)CO)S(=O)(=O)c2ccc(/C=C/c3ccccc3)cc2O[C@@H]1CN(C)CC1CC1 | i
C/C=C/c1ccc2c(c1)O[C@@H](CN(C)Cc1ccc(F)cc1)[C@H](C)CN([C@@H](C)CO)S2(=O)=O | i
CS(=O)(=O)N(CC(=O)Nc1ccccc1C(=O)N1CCOCC1)c1ccc(Cl)cc1 | i
C[C@H]1CN([C@@H](C)CO)C(=O)c2cc(-c3cccc(F)c3)cnc2O[C@@H]1CN(C)Cc1cccc(F)c1 | i
COc1ccccc1-c1cnc2c(c1)C(=O)N([C@@H](C)CO)C[C@H](C)[C@H](CN(C)C)O2 | i
Cc1cc(Cl)ccc1OCC(=O)Nc1cccc(NC(=O)c2ccccc2Cl)c1 | i
CC(=O)N(C)C[C@@H]1Oc2ncc(-c3ccccc3C)cc2C(=O)N([C@H](C)CO)C[C@@H]1C | i
C[C@H](CO)N1C[C@H](C)[C@H](CN(C)C(=O)c2cccc(F)c2)Oc2ncc(-c3ccccc3)cc2C1=O | +
Nc1nnc(SCC(=O)NC2CCCCC2)n1-c1ccccc1 | i
CCCN(C)C[C@H]1Oc2ncc(-c3cccc(C(=O)N(C)C)c3)cc2C(=O)N([C@H](C)CO)C[C@H]1C | i
CCOc1ccc(NC(=O)CC2C(=O)NCCN2C(=O)c2ccccc2)cc1 (stereo not drawn) | i
O=C(C[C@@H]1CC[C@@H](NC(=O)CC2CC2)[C@H](CO)O1)NCc1ccc(Cl)cc1 | i
Cc1ccc(NC(=O)C(C)n2cc([N+](=O)[O-])cn2)cc1C (stereo not drawn) | i
Cc1ccc2c(c1)NC(C(F)(F)F)(C(F)(F)F)NC2=O | i
CC(C(=O)Nc1ccccc1-c1ccccc1)N(c1ccccc1)S(C)(=O)=O (stereo not drawn) | i
O=C(Nc1ccccc1C(=O)O)c1cccc(NS(=O)(=O)c2ccc(Cl)cc2)c1 | i
Clc1snnc1CN1CCOCC1 | i

# The list is partial, so the mix of outcomes need not match the whole.
